# MT1-MMP act inh: blocks activation of human MT1-MMP | GFP/RFP ratio change, % at 20 µM | AID 651647 | hit rate 0.061% among 360,000 | HT1080 RFP-PRO-GFP cells, GFP/RFP ratio fluorescence, overnight; percent of plate control window, DMSO zero;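 active means GFP/RFP ratio change of at least 30% with cell ATP level not reduced by more than half and red fluorescence within 50% of control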; further: strong numbers were not always called active
#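 Material: RFP-PRO-GFP reporter HT1080 cells. Dosing: single-point 20 µM compound, 1% DMSO. Controls: DMSO and RFP-L50D-GFP cell wells. Timing: cells overnight before dosing, compound overnight, 37 °C, 5% CO2. Measure: GFP/RFP fluorescence ratio.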
# eIF4H inh: inhibitors of RNA binding by human eIF4H; inhibition, % at 35 µM; Q15056; hit rate 0.94% among 290,000; eIF4H fluorescence polarization binding assay;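 active means 50% or more with normal probe brightness, or confirmed in later tests; inconclusive means above 50% with abnormal brightness, or retests that disagree; inactive means below 50% or failed in later tests; about a fifth of its hits are not listed in these tables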;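 further: calls also rest on retests at 20 µM and on dose response follow-up; 0% = protein and probe with vehicle and 100% = probe without protein; strong numbers were not always called active; many hits fall short of the cut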
# HIV Env fusion: HIV envelope-mediated fusion inhibition | HeLa-JRFL Env/CEM21 cell fusion, luciferase | inhibition, % at 12.3 µM | hit rate 1.1% among 360,000 | AID 651610;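 active means mean replicate inhibition score of at least 50 and every replicate individually at or above 50; inconclusive means only one of the two criteria met; inactive means mean below 50 and not all replicates reaching 50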;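 further: 0% = plate neutral controls and 100% = maraviroc near 300 nM; one replicate is shown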
# UUG fidelity: alters start codon recognition fidelity in yeast. activity score, % at 18.7 µM. AID 602363. hit rate 0.13% among 350,000. S. cerevisiae UUG-firefly luciferase reporter, luminescence/redox ratio;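 active means replicate mean at a twofold rise or more, about +100% in these data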;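 further: firefly luciferase made from a UUG start codon reports start codon fidelity; reporter light over untreated wells divided by growth signal over untreated wells; some hits fall short of that in this replicate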
# CSC inhib: blocks cancer stem cells; cancer stem cell-like cells viability, luminescence; inhibition, % at 7.5 µM; hit rate 1.1% among 300,000; AID 2717;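 active means mean at 75% or more and at least half the replicates too; inconclusive means mean and replicates disagree; tested in HMLE shEcad cells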;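 further: 0% = median of negative and 100% = median of positive control wells; the first replicate is given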
# Rce1 inhib: blocks yeast Ras-converting enzyme | Q03530 | yeast membranes, quenched prenylated peptide cleavage fluorescence | calls only | hit rate 0.27% among 290,000;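 active means fall in fluorescence gain of 50% or more versus controls, with final raw signal at or below 3038400; inconclusive means same 50% fall but final raw signal above 3038400; inactive means fall in fluorescence gain under 50%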;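 further: plate controls were neutral control wells for no effect and wells lacking membranes for full effect; tested at 10 µM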
# Target sequence (Q03530 whole entry, looked up): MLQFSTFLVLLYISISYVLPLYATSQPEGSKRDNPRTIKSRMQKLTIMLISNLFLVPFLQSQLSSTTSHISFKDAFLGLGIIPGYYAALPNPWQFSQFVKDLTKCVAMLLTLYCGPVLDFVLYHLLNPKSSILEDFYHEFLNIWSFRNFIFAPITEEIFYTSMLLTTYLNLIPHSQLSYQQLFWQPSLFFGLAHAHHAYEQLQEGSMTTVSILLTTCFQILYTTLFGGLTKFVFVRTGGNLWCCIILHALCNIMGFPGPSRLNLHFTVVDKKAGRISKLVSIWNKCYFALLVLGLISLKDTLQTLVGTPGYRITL
# PABP polyA inh: PABP-poly(A) binding inhibition; hit rate 1% among 290,000; PABP-poly(A) RNA binding, fluorescence polarization; inhibition, % at 35 µM; AID 2014; P11940;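 active means 50% or more with normal probe brightness, or confirmed in later tests; inconclusive means above 50% with abnormal brightness, or retests that disagree; inactive means below 50% or failed in later tests; about a fifth of its hits are not listed in these tables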;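 further: calls also rest on retests at 20 µM and on dose response follow-up; controls were probe without protein and protein plus probe with vehicle; some compounds called inactive have numbers as strong as hits; many hits fall short of the cut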
# Target sequence (P11940 whole entry, looked up): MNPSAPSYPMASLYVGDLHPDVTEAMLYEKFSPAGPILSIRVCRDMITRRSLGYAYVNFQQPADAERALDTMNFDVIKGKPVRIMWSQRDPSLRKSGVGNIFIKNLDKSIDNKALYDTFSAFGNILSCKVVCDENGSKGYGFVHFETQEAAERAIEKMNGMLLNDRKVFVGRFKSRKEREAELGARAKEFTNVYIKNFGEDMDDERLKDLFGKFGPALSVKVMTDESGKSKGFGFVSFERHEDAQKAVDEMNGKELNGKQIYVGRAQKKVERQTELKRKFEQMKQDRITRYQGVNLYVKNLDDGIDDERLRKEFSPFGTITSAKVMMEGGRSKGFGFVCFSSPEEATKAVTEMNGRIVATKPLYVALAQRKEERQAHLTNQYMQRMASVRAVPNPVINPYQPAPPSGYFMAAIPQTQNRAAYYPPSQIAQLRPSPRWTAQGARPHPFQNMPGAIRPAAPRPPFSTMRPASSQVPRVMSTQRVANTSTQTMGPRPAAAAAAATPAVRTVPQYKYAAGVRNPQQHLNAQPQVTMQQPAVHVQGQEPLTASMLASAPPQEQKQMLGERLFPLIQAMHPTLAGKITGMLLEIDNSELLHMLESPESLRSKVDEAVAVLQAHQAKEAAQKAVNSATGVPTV
# MT1-MMP act inh RFP: also measured in MT1-MMP act inh; calls as there; RFP signal change, %; measured here: RFP expression control read;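 0 = vehicle wells; hits needed this value within 50% of zero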
# * hit, by the source's call; i = inactive; ? = inconclusive; . = not tested or not shown; & = joins results of further samples. The list is partial (hit frequency here may not be typical).
SMILES,MT1-MMP act inh,MT1-MMP act inh RFP,eIF4H inh,HIV Env fusion,UUG fidelity,CSC inhib,Rce1 inhib,PABP polyA inh
CCOC(=O)C1CCCN(C(=S)Nc2cc(C)cc(C)c2)C1 (stereo not given),-2,0,-9,10,-11,-6,i,-9
CCCCCCSc1cc(-c2nc3ccc(C)cn3c2NCc2ccccc2)ccc1OC,2&1,-7&-13,.,30,-16,-7,i,.
COc1ccc(CNS(=O)(=O)c2cc3c(cc2Cl)NC(=O)CO3)cc1,-2,-1,-5,0,-19,-5,i,-8
Cc1ccc(C(=O)CCC(=O)OC(C)C(=O)NC2CCCCC2C)cc1 (stereo not given),-4,0,.,.,-1,-18,.,.
NS(=O)(=O)c1cc(Cl)c(Cl)c(S(N)(=O)=O)c1,-3,3,.,3,-19,3,.,.
O=C(CS(=O)(=O)Cc1ccccc1)N1CCN(Cc2ccc3c(c2)OCO3)CC1,1,2,-4,21,-9,-2,i,-6
COc1ccc(Cl)cc1NC(=O)c1ccccc1C,2,3,2,.,-18,-17,i,7
COCc1ccc(-c2c(-c3ccc(OC)cc3)oc(=O)c3cc(OC)c(OC)cc23)cc1,1,-8,.,-75,-20,23,.,.
Cc1cc(C)c(NC(=S)NCCCSC2CCCCC2)c(C)c1,-8,-9,0,15,-31,14,i,2
CN(Cc1ccc(F)cc1)C(=O)c1cc(COc2ccc(-n3cncn3)cc2)on1,-2,-7,-2,62*,-3,2,i,7
CN(c1ccc(C(=O)N2CCN(c3ccc(F)cc3)CC2)cc1)S(C)(=O)=O,8,-2,2,.,-4,-13,i,-4
CCOP(=O)(OCC)c1nc(/C=C/c2ccccc2)oc1NCc1ccc(OC)cc1,-10,-3,-7,-5,2,5,?,5
CN(C)C(CNc1ccc(C(F)(F)F)cn1)c1ccccc1 (stereo not given),-3,2,-5,-10,-4,-13,i,6
COc1cccc(/C=N/Nc2nc(Nc3ccccc3)nc(-n3nc(C)cc3C)n2)c1O,-13,-8,13,.,.,46,i,-7
O=C(CCN1C(=O)c2ccccc2C1=O)C1=NN[C@@H]2C(=O)N(c3ccc4c(c3)OCCO4)C(=O)[C@H]12,-2,2,-2,14,-5,-11,i,-5
COc1cccc(-c2csc3nc[nH]c(=O)c23)c1,-7,1,-3,-98,-21,6,i,4
CCN1c2ccccc2-c2nc3ccccc3n2C1c1ccco1 (stereo not given),0,-8,-7,55*,-8,2,?,-5
COc1cc(C(=O)OCCCN=C2NS(=O)(=O)c3ccccc32)cc(OC)c1OC,-1,0,5,20,.,-20,i,10
Cc1cccc(NC(=O)COC(=O)CN2CCCCCC2=O)c1C,3,2,.,10,-8,-8,.,.
C=C(Br)Cn1c(CCC)nc2ccccc21,-1,0,3,.,-3,.,i,6
CC(=O)Nc1ccc(C(=O)N2CCCCC2c2cc(C(=O)Nc3cccc4c3CCCC4)no2)cc1 (stereo not given),-3,-8,.,-23,2,.,.,.
CNc1nc2cc([N+](=O)[O-])c([N+](=O)[O-])cc2nc1NC,5,-31,-6,24,.,4,i,8
COc1cc(NC(=O)c2ccc3c(c2)S(=O)(=O)N=C2CCCCCN23)cc(OC)c1,6,4,.,.,-9,-4,i,.
Cc1ccc(-c2cnc(C(O)c3cc(C)cc(C)c3)[nH]2)cc1 (stereo not given),3,-3,.,0,-19,.,.,.
CNc1ncc(C(=O)c2ccc(Cl)cc2)s1,6,4,-1,-54,-24,-3,i,-5
O=C(CSc1cccc[n+]1[O-])c1ccc(-c2ccccc2)cc1,0,0,-6,-25,34,-9,i,8
O=C(NNc1ccccc1[N+](=O)[O-])NC1CCCCC1,3,5,1,11,.,-3,i,16
Cc1[nH]n(C(N)=S)c(=O)c1N=Nc1ccc(S(=O)(=O)N2CCCCCC2)cc1,9,0,-4,-7,-32,-5,i,0
Cc1cc(C(=O)Nc2nncs2)oc1C,0,2,12,-10,-12,-6,i,7
O=C1C(Cl)=C(N2CCCCCC2)C(=O)N1c1ccccc1Cl,-1,-1,0,5,-16,-8,i,-4
O=c1c2ccccc2nnn1COc1cccc(Cl)c1,-1,2,-3,6,-4,3,i,-6
CC(c1ccncn1)N(C)Cc1nc(Cc2ccccc2F)no1 (stereo not given),-4,1,-4,5,.,-15,i,-7
COc1ccc(/C=C(/NC(=O)c2ccccc2)C(=O)N2CCOCC2)cc1OC,2,4,-6,-9,-21,-2,i,7
O=C(Cc1ccccc1)NC1CCSc2ccccc21 (stereo not given),-4,2,-4,-11,-5,-8,i,-2
CCCCOc1ccc(C2/C(=C(\O)c3ccc4c(c3)OCCO4)C(=O)C(=O)N2CCCN2CCOCC2)cc1 (stereo not given),-2,3,5,2,-13,5,i,-6
COC(=O)c1c(NC(NC(=O)C(C)C)C(Cl)(Cl)Cl)sc2c1CCC2 (stereo not given),-20,-11,5,13,-14,16,i,-2
COc1ccc(C2(C(=O)N3CCOCC3)CCCC2)cc1,-2,0,-7,.,.,-7,i,-5
COc1cc(OC)c(NC(=O)CCc2nc(-c3ccc(C)cc3)no2)cc1Cl,0,-9,-2,.,-1,53,i,-3
COc1cc(NC(=O)C2CC(=O)N(Cc3ccco3)C2)cc(OC)c1 (stereo not given),4,4,.,10,-11,-8,i,.
COc1cccc(-c2sc3ccc(OC)cc3c2C#CC2(O)CCCCC2)c1,6,0,.,-5,2,105*,.,.
CCCn1c(=N)n(CC(=O)c2ccc(Cl)cc2)c2ccccc21,-2,-4,2,1,2,24,i,2
N#CC1=C(N)OC2=C(C(=O)CCC2)C1Cc1ccccc1 (stereo not given),-6,2,.,-3,-10,-7,i,.
COc1ccc(C(=O)NC23CC4CC(CC(C4)C2)C3)cc1OC,-2,-3,-5,-11,11,19,i,2
CC(C)(C)NC(=O)C(c1ccncc1)N(C(=O)c1csnn1)c1cccc2ccccc12 (stereo not given),-1,-1,4,21,.,-6,i,4
Cc1oc(-c2ccccc2)nc1C(=O)Nc1nccs1,-3,1,-5,-122,-11,-15,i,2
COc1ccc(N(C(=O)c2snc(C(N)=O)c2N)C(CC(C)C)C(=O)NCC2CCCO2)cc1 (stereo not given),0,0,-14,17,0,-8,.,-8
Cc1c(N=C2C=CC(=O)c3ccccc32)c(=O)n(-c2ccccc2)n1C,-7,-1,-2,2,.,.,i,-2
CNC(=S)N1CCN(c2ccccn2)CC1,1,0,-4,.,-4,-20,i,-2
O=C1NCCN1CCNS(=O)(=O)c1ccc(F)cc1,-1,4,-5,20,.,3,i,12
COC(=O)CN(c1ccc(OC)cc1)S(=O)(=O)c1ccc(OC)c(OC)c1,-2,0,-7,-20,26,0,i,-2
C=CCNC(=S)NNC(=O)c1cc(Cl)ccc1OC,0,-2,-4,-2,-6,-8,i,-8
Clc1cccc(CN2CCN(Cc3nc(CCc4ccccc4)no3)CC2)c1,-1,1,-7,7,-7,-11,i,-4
Cc1ccc(-c2n[nH]c(=S)n2Cc2ccccc2)cc1,6,1,-4,-117,-12,-4,i,11
CN(C(=O)c1cc(S(=O)(=O)N2CCc3ccccc32)cn1C)C1CCCCC1,-2,-16,7,-1,1,-6,i,0
COc1ccccc1NC(=O)c1c(Nc2ccccc2F)sc(C(=O)Nc2cccc(Cl)c2)c1N,0,-10,-8,4,-12,83*,i,-7
COc1ccc(/C=C/C(=O)NC(=S)N2CCN(c3ccccn3)CC2)cc1OC,1,3,11,2,.,.,i,4
C[C@@H]1CN([C@H](C)CO)C(=O)Cc2cc(NC(=O)Nc3ccccc3)ccc2O[C@@H]1CN(C)Cc1ccc2c(c1)OCO2,3,-3,.,13,-6&3,13,.,.
O=C(CN(Cc1ccccc1)S(=O)(=O)c1ccc(Cl)cc1)NCC1CCCO1 (stereo not given),1,-1,2,10,-14,2,i,11
COc1ccc(CNc2nn[nH]n2)cc1OC,2,-1,-13,.,-14,.,i,-2
COCCOc1cc(N)c(Cl)cc1Cl,5,4,-7,-15,-21,-6,i,2
# Next section:
SMILES,MT1-MMP act inh,MT1-MMP act inh RFP,eIF4H inh,HIV Env fusion,UUG fidelity,CSC inhib,Rce1 inhib,PABP polyA inh
COc1ccc(/C=N/NC(=O)c2ccc(Cn3cc([N+](=O)[O-])cn3)o2)cc1O,1,6,-4,.,-18,-13,i,-8
Cc1cccc(C(=O)NCc2nnc(SC(C)C(=O)Nc3nnc(C)s3)n2C)c1 (stereo not given),-1,2,.,-8,-16,8,i,.
O=C(NC1CCCC1)C(c1ccncc1)N(C(=O)c1csnn1)C1CCCC1 (stereo not given),0,6,-5,7,.,-9,i,-15
O=C(NCc1ccc2c(c1)OCO2)C1CCN(S(=O)(=O)c2cccs2)CC1,-3,-7,-6,-32,-10,.,i,-6
COC(=O)C1=C(C)NC(=S)NC1c1ccco1 (stereo not given),-1,2,5,10,.,-4,i,-10
COc1c(C)cc(S(=O)(=O)NC2CC(C)(C)NC(C)(C)C2)c(C)c1C,2,8,-7,-43,-22,-5,i,-4
CCn1c(=O)n(CC(=O)N(C)Cc2ccccc2)c(=O)c2ccccc21,3,3,14,.,11,2,i,3
O=C(C[C@H]1C/C=C/CC[C@@H](Cc2ccc(F)cc2)C(=O)OC[C@H](c2ccccc2)NC1=O)NCCO,-4,0,.,34,-27,-11,.,.
Fc1ccccc1/C=C/c1ccc2ccccc2n1,0,-1,-2,.,-58,10,i,-3
O=C1C2C3C=CC(C3=C(c3ccccc3)c3ccccc3)C2C(=O)N1Cc1ccccc1 (stereo not given),-3,-12,2,.,.,19,i,2
Cc1cc(C)n(C2CC(=O)N(c3cc(Cl)cc(Cl)c3)C2=O)n1 (stereo not given),8,1,-11,3,.,7,i,-11
COc1ccc(Cl)cc1N(CC(=O)NCCSc1ccccn1)S(=O)(=O)c1ccccc1,2,2,3,13,-4,3,i,2
CCOC(=O)C1(Cc2cccc(OC)c2)CCN(Cc2cnc(C)s2)CC1,-1,-2,-1,2,-11,-5,.,-3
COc1cc2cc(CCOC(=O)c3ccc(C(F)(F)F)cc3)oc(=O)c2cc1OC,0,3,.,6,-21,19,.,.
COc1ccc(C(CNC(=O)c2cc3c(s2)CCC(C)C3)N2CCCC2)cc1 (stereo not given),-3,-3,.,-48,-2,4,.,.

# Arranged by value in MT1-MMP act inh (low to high): 3 from the list above.
smiles	MT1-MMP act inh	MT1-MMP act inh RFP	HIV Env fusion	UUG fidelity	Rce1 inhib
COC(=O)c1c(NC(NC(=O)C(C)C)C(Cl)(Cl)Cl)sc2c1CCC2 (stereo not given)	-20	-11	13	-14	i
Cc1ccc(C(=O)CCC(=O)OC(C)C(=O)NC2CCCCC2C)cc1 (stereo not given)	-4	0	.	-1	.
COc1ccc(/C=N/NC(=O)c2ccc(Cn3cc([N+](=O)[O-])cn3)o2)cc1O	1	6	.	-18	i

# The listing continues.
SMILES,MT1-MMP act inh,MT1-MMP act inh RFP,eIF4H inh,HIV Env fusion,UUG fidelity,CSC inhib,Rce1 inhib,PABP polyA inh
COC(=O)[C@H](C(C)C)N(Cc1ccccc1)S(=O)(=O)CCN1CCCC1,2,1,.,-44,2,.,.,.
Cc1ccc(NC(=S)N(CCN(C)C)C(C)c2cccnc2)cc1 (stereo not given),5,4,1,1,.,-13,i,?
Clc1c(Cl)c(Cl)c2n[nH]nc2c1Cl,3,-1,1,-7,.,36,i,8
CC(CO)(CO)NCc1ccc(-c2ccccc2)cc1,3,4,-1,-3,.,10,i,5
CS(=O)(=O)N(CCc1ccccc1)CC(=O)Nc1ccccc1,1,4,2,-4,-5,-10,i,2
Cc1cccc(C(=O)Oc2ccccc2C(=O)N2CCOCC2)c1,-2,0,-11,12,-11,-4,i,7

# Screening data (PubChem)
